Compound activity deposited in PubChem BioAssay by several laboratories.
Sa ugtP lethal = growth inhibition of ugtP-null S. aureus, primary screen, RN4220 ugtP deletion, OD600 | 16 h; some inactives read as strong as hits | growth inhibition, % (concentration not given with the values) | 330,000 tested, 0.54% active | AID 1259309, 2017;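 active = z-score under -3 and OD600 up to 0.15 on both plates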;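 note: plate controls were untreated wells for no effect and antibiotic for full effect; wells of about 80 µL received 100 nL stock; the first replicate is given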
Mtb hypoxia rep = PubChem AID 1159583 | M. tuberculosis hypoxia-regulated fluorescent reporter, fluorescence | fluorescence inhibition, % (no concentration beside the values) | 300,000 tested, 0.1% active;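 active = 35 to 45% if threefold the growth effect, above 45% if 1.5-fold the growth effect; inactive = the rest, general growth blockers included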;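 note: wells of about 50 µL received 100 nL stock; 0% = vehicle wells and 100% = reference inhibitor wells; whole bacteria with a GFP reporter of the hypoxia response; strong numbers were not always called active; many hits fall short of the cut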
BJeLR lethal = MLPCN primary cell-based screen for lethality selective to Ras in HRASV12 cells | BJeLR (HRASV12) viability, CellTiter-Glo ATP luminescence, 48 h; reference of the scale not given here | inhibition, % (test concentration not listed) | 300,000 tested, 0.17% active | AID 1554, 2009;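 active = replicate mean above 50%; inconclusive = above 50% but judged a plate artefact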;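 note: 50 nL library stock added to about 25 µL; numbers are from one replicate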
Autofluor counter = flagged as autofluorescent in microsphere protease counterscreen. 360,000 tested, 3.1% active. AID 624483. compound autofluorescence counterscreen, microsphere flow cytometry; stronger effect = higher value. fluorescence intensity (concentration not given with the values);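 active = at least 3 SD above the mean of all compounds, about 16000 in these data; inconclusive = too few beads counted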;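 note: 100 nL of 1 mM stock went into each well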
RN4220 kill = growth inhibition of S. aureus RN4220, primary screen, OD600 | 16 h | inhibition, % (no concentration beside the values) | 330,000 tested, 0.33% active;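 active = z-score of -3 or lower and OD600 up to 0.18 on both plates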;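 note: plate controls were untreated cells for no effect and reference antibiotic for full effect; stock transfer was 100 nL into about 80 µL; one replicate is shown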
PrP UTR inh = inhibition of PrP 5' UTR reporter expression; 340,000 tested, 0.35% active; AID 488862, 2010; cell-based PrP 5' UTR mRNA reporter, plate reader; inhibition, % (no concentration beside the values);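 active = every replicate at 50% or more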;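 note: 0 = median of the neutral control wells; tested in H4 reporter cells; numbers are from one replicate; inactives centre near -14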
Mtb hypoxia rep growth = second read-out of Mtb hypoxia rep, no call of its own (marks repeat the call); growth inhibition, %; measured here: M. tuberculosis growth (absorbance);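 0% = vehicle and 100% = reference antibiotic; read after six days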
* = called active by the depositor; ? = inconclusive; / = no result given. An unsorted share of the library; about 4% have a hit in one of these screens.

Values run as follows: BJeLR lethal	RN4220 kill	Mtb hypoxia rep	Mtb hypoxia rep growth	Sa ugtP lethal	PrP UTR inh	Autofluor counter
> COc1cc(/C=N/Nc2ccccc2C(F)(F)F)ccc1O
    -4	/	/	/	/	-38	4924
> Cc1ccc(N2C(=O)CC3(CC4C=CC3C4)C2=O)cc1 (stereo unspecified)
    -1	1.1	5	8	7	-3	2829
> COc1cc2c(cc1NC(=O)CC1SC(N3CCCC3)=NC1=O)oc1ccccc12 (stereo unspecified)
    -19	-6.0	2	9	-12	-18	4656
> Cc1ccc(C=NNC(=O)c2nnn(-c3nonc3N)c2C(C)C)s1
    /	3.8	3	0	4	/	/
> O=[N+]([O-])c1ccc(O)c(-c2nc(-c3ccccc3)c(-c3cccs3)[nH]2)c1
    15	87*	4	3	85*	-3	9998
> CSCC[C@H](NC(=O)COc1ccc(Cl)cc1)C(=O)N1CCC2(CC1)NCCc1[nH]cnc12
    -1	1.4	-10	-5	-1	-4	5868
> CCOC(=O)c1c(NC(=O)COC(=O)Cc2c[nH]c3ccccc23)sc(C(=O)N(C)C)c1C
    6	2.1	7	9	-15	-7	?
> Cn1cc(C(=O)NC2CCCCC2)c(=O)c2cc(S(=O)(=O)N3CCOCC3)ccc21
    -3	4.0	8	1	7	-7	5245
> CCCCOc1ccccc1C1C(C(=O)OC)=C(C)N(C)C(C)=C1C(=O)OC
    -2	-2.3	-2	-1	-14	-11	22647*
> NNC(=O)CCC(=O)Nc1ccccc1
    8	2.2	-2	16	-1	-30	3269
> CCCOc1ccc(/C=c2\sc3ncnn3c2=O)cc1
    4	/	/	/	/	2	4162
> CCCN1Cc2cccc(C(=O)NCCc3ccccc3)c2C1=O
    6	/	/	/	/	-5	4414
> CC(C)CC[n+]1ccn(-c2nc3ccccc3nc2[N-]S(=O)(=O)c2ccc(Cl)cc2)c1
    -6	6.2	11	4	0	-7	?
> COC(=O)c1ccc(CSc2nc3sc(C)c(C)c3c(=O)[nH]2)cc1
    -4	2.7	2	-1	10	-5	5293
> COc1ccc(N2Cc3ccccc3C2)cc1Cl
    -1	/	/	/	/	-14	4747
> CCC(=O)Nc1cc(OC)c(NC(=O)c2ccccc2)cc1OC
    9	2.0	/	/	4	-28	2579
> O=C(CCl)N(c1ccccc1)c1c[nH]c2ccccc12
    -11	91	/	/	90*	-43	2973
> CN1CCN(S(=O)(=O)c2ccc(=O)[nH]c2)CC1
    4	6.2	14	3	-2	-19	11452
> Cc1cc(SCC(=O)c2cc3ccccc3o2)nc2ccccc12
    -8	5.2	3	1	15	-27	11920
> CN(CCC#N)C(=O)CSc1nnc(-c2c[nH]c3ccccc23)o1
    -5	3.2	4	3	0	-30	4139
> O=C(c1ccc(F)cc1Cl)N(c1ccccn1)C1CCCCC1
    12	8.5	-8	-12	6	0	4256
> O=C(COc1cc(Cl)c(Cl)cc1Cl)Nn1cnnc1
    -3	5.3	8	10	-2	-17	8697
> CC1(C)CC(=O)C(C=Nc2ncccc2C(=O)O)=C(O)C1
    /	0.6	11	10	4	/	/
> Cc1cc(SCC(=O)Nc2cccc(S(=O)(=O)N3CCOCC3)c2)nc2ccccc12
    0	-4.0	1	7	-13	-32	5190
> CCOC(=O)/C(CCC[N+](C)(CC)CC)=N\O
    0	/	/	/	/	18	1932
> COC(=O)C1=C(C)N=c2s/c(=C/c3ccoc3)c(=O)n2C1c1ccccc1 (stereo unspecified)
    -3	/	/	/	/	-18	21630*
> CCOC(=O)c1cnc(-n2nc(C)cc2C)nc1Nc1ccc(O)cc1
    -1	5.5	-7	-3	-3	-16	6818
> COc1ccc(CCNC(=O)CSc2nnnn2C)cc1OC
    7	1.7	3	7	8	-19	3171
> Cc1[nH]c2ccccc2c1/C=N/NC(=O)CCC(=O)NCc1ccccc1
    5	/	/	/	/	-23	11661
> CCOc1ccc(CCNC(=O)CCn2cccc2)cc1OCC
    -3	-15	7	-4	-2	-25	3248
> COc1ccc(C(=O)Nc2ccccc2N2CCCC2)cc1S(=O)(=O)N1CCOCC1
    6	3.5	12	-2	7	-2	?
> C=CCN1C(=O)C(CC(=O)Nc2ccc(OCCC)cc2)N(CCCN2CCN(Cc3ccccc3)CC2)C1=S (stereo unspecified)
    -5	0.0	-6	7	-4	-20	3200
> Cc1ccc(NC2CCCN(C(=O)CN3C(=O)CSC3=O)C2)cc1C (stereo unspecified)
    -4	0.1	-6	4	0	-17	6379
> O=C(Nn1cnc2ccccc2c1=O)C1CCCCC1
    0	7.7	2	2	19	-8	6085
> CNC(=O)C1CN(C(=O)c2cccc(S(=O)(=O)N3c4ccccc4CC3C)c2)c2ccccc2O1 (stereo unspecified)
    /	11	8	0	6	-1	3120
> CC(C)N(C(=O)[C@H]1C[C@H](CC(=O)NCCCn2ccnc2)C(=O)N2CCc3c([nH]c4ccc(Cl)cc34)[C@]12C)C(C)C
    /	-1.4	-6	5	0	-2	3616
> CC(C)[C@@H](C(=O)N1CCN(Cc2ccc3c(c2)OCO3)CC1)n1nnc2ccccc2c1=O
    8	3.5	1	3	3	-14	5271
> Cc1ccc(C)c(S(=O)(=O)N2CCN(C(=O)c3cc(-c4cccs4)nn3-c3ccccc3)CC2)c1
    -4	-2.4	4	-1	23	-2	/
> COC(=O)c1ccc(N/C=C/C(=O)c2ccc(OC)c(OC)c2)cc1
    6	1.3	5	0	-12	/	10599
> CC(=O)c1c(C)n(-c2ccc(Cl)cc2)c2ccc(O)cc12
    7	2.4	6	4	3	0	4090
> COc1cc(NC(=O)C(=O)NCCN(C)C)c(OC)cc1Cl
    0	-1.3	1	8	-1	-6	3603
> CCn1cc(C(=O)NCc2ccc3c(c2)OCO3)c(=O)c2cc(F)c(N3CCN(C)CC3)cc21
    -2	-0.7	11	11	7	-18	10208
> CC(C)n1c(SC2C(=O)CC(C)(C)CC2=O)nc2c1c(=O)n(C)c(=O)n2C
    -2	3.8	3	10	6	-8	6604
> COc1ccc(N(CC(=O)N2CCN(c3ccc(F)cc3)CC2)S(=O)(=O)c2c(C)noc2C)cc1
    2	4.7	-9	4	9	-15	6057
> CCn1nnc(-c2ccccc2NC(=O)c2cccc(-n3cnnn3)c2)n1
    2	2.5	9	6	1	-4	8919
> O=C(Cc1ccccn1)c1ccc(O)cc1O
    -7	4.0	5	8	5	0	3121
> CCOC(=O)CCNC(C(=O)OCC)c1ccccc1 (stereo unspecified)
    -9	1.0	/	/	10	-18	2517
> O=C(CSCc1ccc(Cl)cc1)N1CCN(Cc2ccc3c(c2)OCO3)CC1
    1	1.1	/	/	-7	-4	3851
> S=c1[nH]nc(-c2cccnc2)n1N=Cc1ccccc1
    /	7.1	8	6	2	/	/
> COc1ccc(S(=O)(=O)n2c([N+](=O)[O-])cnc2C)cc1OC
    -11	1.3	5	9	16	-16	4386
> c1ccc(-c2nc(N3CCCCCC3)nc(-n3ccnc3)n2)cc1
    3	-8.1	/	/	-24	-10	3810
> O=C1OC2CCC1(c1ccccc1)C2 (stereo unspecified)
    -6	8.8	11	-10	-7	-24	2313
> Cn1c(Cn2c(=O)sc3ccccc32)nnc1SCc1ccccc1F
    10	4.6	/	/	9	-8	4277
> CCCC1COC(Cn2cncn2)(c2ccc(C)cc2)O1 (stereo unspecified)
    4	1.5	7	12	2	-19	12724
> Cc1cc([N+](=O)[O-])cc(/C=N/n2c(C)nc3ccccc3c2=O)c1O
    8	/	/	/	/	-47	4428
> CC(C)(C)NC(=O)CSc1nnc(C2CC2)n1Cc1ccccc1
    5	-4.0	/	/	5	2	3204
> CC1CCN(CCCNC(=O)c2ccc3c(=O)n(CCc4ccccc4)c(=O)[nH]c3c2)CC1
    2	-1.2	13	10	1	-29	9293
> C=CCN(C(=O)C1=NN(C2CCS(=O)(=O)C2)C(=O)CC1)c1nc(-c2ccc([N+](=O)[O-])cc2)cs1 (stereo unspecified)
    0	-1.3	8	1	8	-81	3340
> Cc1cc(C)n2nc(C)c(-c3ccccc3)c2n1
    -7	3.1	6	21	2	-21	4368
> Cc1ccc(C(=O)NCC(=O)N/N=C/c2cccs2)cc1C
    2	/	/	/	/	-33	4078

Next part.
Values run as follows: BJeLR lethal	RN4220 kill	Mtb hypoxia rep	Mtb hypoxia rep growth	Sa ugtP lethal	PrP UTR inh	Autofluor counter
> CC(=NCCCN1CCOCC1)c1c(O)[nH]c(=O)[nH]c1=O
    0	5.4	6	5	0	-16	20875*
> N#CC(C#N)=C1C=CC=CN1/C(=C\c1ccco1)C(=O)c1ccc(Cl)cc1
    /	52	17	7	89*	-3	1998
> CCOC(=O)c1c(-c2ccc(OC)cc2)cn2ccccc12
    -5	7.0	18	15	21	-4	4640
> CCCCNS(=O)(=O)c1ccc2nc(-c3cccnc3)cc(C(=O)NC3CCCC3)c2c1
    -3	12	-2	0	-5	-16	5828
> Nc1nonc1-n1nnc(C(=O)NN=Cc2cccc(Cl)c2)c1-c1ccc2c(c1)OCO2
    /	19	5	3	18	/	/
> Cc1ccc(S(=O)(=O)Nc2ccccc2C=Nc2nc3ccccc3n2C(C)C)cc1
    /	26	12	15	3	/	/
> O=c1c2ccccc2nnn1CSc1nnc(-c2cccs2)n1Cc1ccccc1
    1	5.8	3	-3	14	-13	3147
> Cc1cc(NC(=O)COC(=O)C2CCC(=O)N2)c([N+](=O)[O-])cc1C (stereo unspecified)
    0	13	13	5	6	-14	4543
> Cc1ccn(CC(=O)N2N=C(C(F)F)CC2(O)C(F)F)n1 (stereo unspecified)
    -2	1.2	2	3	0	-30	2403
> COc1ccc(NC(=O)Cc2ccc(C)cc2)c([N+](=O)[O-])c1
    -8	5.7	17	10	5	-14	2391
> Cc1ccc(S(=O)(=O)N(CC(=O)N2CCCCCC2)c2ccccc2F)cc1
    0	/	/	/	/	-9	4398
> O=C1CSC(c2cccc([N+](=O)[O-])c2)N1c1c(F)cccc1F (stereo unspecified)
    -3	9.3	-5	5	3	38	3187
> CC(C)CCn1nnnc1C(c1ccccc1)N1CCN(C)CC1 (stereo unspecified)
    8	0.8	15	10	5	-19	4265
> CCN(CC)S(=O)(=O)c1ccc(Cl)c(C(=O)NCCN2CCOCC2)c1
    -3	8.4	15	5	11	-21	3868
> O=C(c1ccccc1[N+](=O)[O-])N1N=C(c2ccccc2)CC1(O)C(F)(F)F (stereo unspecified)
    1	2.8	3	-1	-3	-16	3673
> Cc1ccc(C)c(OCCC(=O)OCC(=O)Nc2ccc(Cl)cn2)c1
    2	4.7	5	2	6	-18	/
> COC(=O)Cn1c2nc3ccccc3nc2c2cccc(C)c21
    -1	11	1	1	-1	-6	3033
> COc1ccc(CCNC(=O)CCc2cn(C)c3ccccc23)c(OC)c1OC
    -10	4.8	5	-4	5	-35	4189
> Cc1ccc(S(=O)(=O)NC(=O)c2cc(C)n(-c3ccc(N(C)C)cc3)c2C)cc1
    -7	/	/	/	/	-27	2584
> O=C(NNS(=O)(=O)c1ccc(F)cc1)c1cc(Cl)ccc1O
    -1	8.6	-10	-3	1	0	3752
> O=C(O)C1=C[C@H](c2coc3ccccc3c2=O)C[C@H](OCCCCO)O1
    15	/	/	/	/	-11	3750
> CCn1c(COc2cccc(OC)c2)nnc1SCC(=O)NC1CCCC1
    -4	4.3	8	8	5	-16	3490
> CCN(CC)Cc1nc2c(c(=O)[nH]1)C1(CCCC1)Cc1ccccc1-2
    0	0.1	-2	2	25	-31	10853
> CCCS(=O)(=O)c1csc(C(=O)OC)c1N
    -1	1.5	10	16	3	/	/
> CCOC(=O)C1=C(c2ccccc2)NC(=S)NC1c1ccc(Cl)cc1 (stereo unspecified)
    3	1.0	8	-1	-5	-12	?
> C=CCNc1nc(Nc2ccc([N+](=O)[O-])cc2)nc(OCC)n1
    4	4.5	/	/	1	-6	2350
> C(=C1c2ccccc2-c2ccccc21)c1ccccn1
    /	-3.9	1	2	41	-26	3308

In the list so far, these have a CF3 group:
Values run as follows: BJeLR lethal	RN4220 kill	Mtb hypoxia rep	Mtb hypoxia rep growth	Sa ugtP lethal	PrP UTR inh	Autofluor counter
> COc1cc(/C=N/Nc2ccccc2C(F)(F)F)ccc1O
    -4	/	/	/	/	-38	4924
> O=C(c1ccccc1[N+](=O)[O-])N1N=C(c2ccccc2)CC1(O)C(F)(F)F (stereo unspecified)
    1	2.8	3	-1	-3	-16	3673
